HNF4A DNA FP: change in binding of human HNF4 alpha to DNA. P41235. HNF4a-FITC DNA binding, fluorescence polarization, 1 h. activity change, % at 10 µM. hit rate 0.3% among 360,000. AID 1224865; in the data active = activity change above about 30%, passing the limit was not always enough;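 also: controls were the assay level and a saturating level of protein; the project sought stronger binding though the title names inhibitors; some compounds called inactive have numbers as strong as hits; positive values seem to mean higher polarization but the record does not say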
Target sequence (P41235 whole entry, looked up): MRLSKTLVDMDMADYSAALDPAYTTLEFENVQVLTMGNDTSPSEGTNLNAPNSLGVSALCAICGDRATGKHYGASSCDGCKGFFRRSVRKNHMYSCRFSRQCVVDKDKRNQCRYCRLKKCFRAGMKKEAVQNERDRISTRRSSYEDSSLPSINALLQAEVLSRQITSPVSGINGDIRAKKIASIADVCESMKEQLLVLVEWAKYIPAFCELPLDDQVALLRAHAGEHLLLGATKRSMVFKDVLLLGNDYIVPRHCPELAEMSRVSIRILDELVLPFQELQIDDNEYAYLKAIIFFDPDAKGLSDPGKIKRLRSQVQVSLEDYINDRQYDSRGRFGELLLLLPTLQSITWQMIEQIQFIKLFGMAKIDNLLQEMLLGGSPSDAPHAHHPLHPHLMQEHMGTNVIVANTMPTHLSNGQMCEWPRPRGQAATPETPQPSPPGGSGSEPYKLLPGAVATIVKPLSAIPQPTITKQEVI
MLL AF4-AF9 inh: inhibitors of human MLL-AF4/AF9 interaction; inhibition, % at 10 µM; hit rate 0.47% among 350,000; AlphaScreen, biotin-AF4 peptide binding to FLAG-AF9; P42568;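 active = every replicate reaching a set inhibition limit, whatever the replicate mean, cut at about 25% in these data; inconclusive = mean inhibition reaches that limit but some replicates miss it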;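 also: 0% = plate neutral control median and 100% = total signal loss; the record names both 10 and 1 µM as test concentration; the first replicate is given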
Ecoli rRNA inh: inhibits bacterial ribosomal RNA function over humanized ribosomes; E. coli WT GFP vs humanized-ribosome RFP mutants, fluorescence, 24 h; stronger effect = lower value; DMSO median 0, no signal -100; GFP signal change (wild-type ribosome), % (no concentration beside the values); hit rate 1.6% among 350,000; AID 720706;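 active = significant combined selectivity score with lowered wild-type GFP, culture density cut under 30%, mutant RFP and density less affected; inactive = any of these conditions unmet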; also: one replicate is shown; some compounds called inactive have numbers as strong as hits
E coli growth: E. coli growth inhibition; Escherichia coli growth, OD600, 23 h; stronger effect = lower value; OD600 absorbance (test concentration not listed); hit rate 0.21% among 330,000;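 active = OD600 absorbance below the run mean of sample wells minus 3.6 SD, in any replicate, cut at about 0.56 in these data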;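 also: stock transfer was 300 nL into about 60 µL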
FGF22 binding: binders of recombinant human FGF22 by thermal shift; Q9HCT0; SYPRO orange fluorescence; percent of sucrose octasulfate shift, DMSO zero; calls only at 9.99 µM; hit rate 1.5% among 340,000; AID 651658;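 active = melting point raised past a set limit in the mean and every replicate; inconclusive = no clear call; three in four hits are not shown here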
Target sequence (Q9HCT0 whole entry, looked up): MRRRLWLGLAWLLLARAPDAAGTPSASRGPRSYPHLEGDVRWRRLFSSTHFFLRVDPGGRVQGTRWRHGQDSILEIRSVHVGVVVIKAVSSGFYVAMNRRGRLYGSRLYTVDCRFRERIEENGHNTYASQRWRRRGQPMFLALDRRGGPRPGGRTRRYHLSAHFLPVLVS
Vif TR-FRET: HIV-1 Vif–A3G interaction blockers – biochemical, TR-FRET, GST-Vif 1-94, biotin-A3G peptide, dose response retest, primary screen (AID 1117319). TR-FRET GST-Vif / biotin-A3G peptide binding; higher % means a stronger effect; test concentration not given here; strong numbers were not always called active. one-dose inhibition, %; IC50 in µM for titrated hits. hit rate 0.57% among 260,000;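 active = above the screen mean plus three standard deviations and confirmed in dose response; inconclusive = results disagree or hit not tested in dose response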;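 also: Vif residues 1-94 fused to GST binding biotinylated APOBEC3G peptide 110-148; 0% = full assay without inhibitor and 100% = GST in place of GST-Vif; retest series ran down from 100 µM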
ALR H2O2 inh: inhibitors of human sulfhydryl oxidase ALR | hit rate 3.8% among 290,000 | P55789 | inhibition, % (concentration not given with the values) | purified ALR, DTT oxidation, H2O2 HRP-luminol luminescence;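 active = mean and each replicate at 75% or more; inconclusive = only one of the two met; inactive = neither met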;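 also: stock transfer was 7.5 nL into about 7.5 µL; 0% = neutral wells and 100% = wells with inactivated enzyme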
Target sequence (P55789 whole entry, looked up): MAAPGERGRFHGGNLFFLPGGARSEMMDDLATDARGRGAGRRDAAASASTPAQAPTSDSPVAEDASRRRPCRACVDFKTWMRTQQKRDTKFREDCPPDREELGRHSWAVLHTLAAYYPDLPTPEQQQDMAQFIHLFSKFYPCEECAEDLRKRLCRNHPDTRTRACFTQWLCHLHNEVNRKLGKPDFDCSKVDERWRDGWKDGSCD
Ecoli rRNA inh OD600: further read-out of Ecoli rRNA inh, marked with its call; OD600 change, %; measured here: OD600 growth;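 optical density of the mix in the first replicate; 0 = DMSO median and -100 = no signal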
Ecoli rRNA inh RFP: also measured in Ecoli rRNA inh; calls as there; RFP signal change, %; measured here: RFP humanized mutant strains;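 first replicate; 0 = DMSO median and -100 = no signal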
Active calls of the source: *; i = inactive; ? = inconclusive; · = no result given; & = joins results of further samples. Only part of the results is shown; count on the stated rates, not on these rows.

SMILES	HNF4A DNA FP	MLL AF4-AF9 inh	Ecoli rRNA inh	Ecoli rRNA inh OD600	Ecoli rRNA inh RFP	E coli growth	FGF22 binding	Vif TR-FRET	ALR H2O2 inh
C=CCOC(=O)c1sc(NC(=O)c2ccc(OC)cc2)nc1C	0.5	-21	6	9	-0.8	0.74	i	-10%	-4
CC(C)CC(=O)Nc1nnc(S(=O)(=O)N2CCc3ccccc32)s1	0.6	4.4	4	7	-0.7	0.72	i	·	·
O=C(NCCCN1CCN(c2ccc(F)cc2)CC1)C1CCCN(c2ncnc3c2nc2n3CCCCC2)C1 (configuration not stated)	2.7	11	-18	-20	20	0.67	i	·	-1
CCOC(=O)CNC(=O)C1CCCN(c2ncccn2)C1 (configuration not stated)	-1.9	·	·	·	·	0.64	·	5%	-16
CC1CCN(c2ccc(C(=O)O)cc2N)CC1	-4.3	·	·	·	·	0.76	·	-6%	3
COc1ccc(-c2csc3ncnc(N4CCN(S(=O)(=O)c5cccc(C(F)(F)F)c5)CC4)c23)cc1	5.5	-15	4	8	-2.5	0.72	i	-62%	·
COc1ccc(NC(=O)C2CCN(S(=O)(=O)c3c(C)noc3C)CC2)cc1OC	-1.6	1.6	9	9	1.2	0.7	i	-2%	-5
CCOc1ccccc1OC(=O)c1cc2ccccc2oc1=O	-3.6	1.2	5	8	0.9	0.72	i	·	2
CN1c2ccc(-c3ccccc3)cc2[C@@H]2[C@@H](CCN2C(=O)Cc2cccnc2)[C@H]1CO	·	1.8	0	13	0.3	·	i	·	·
Cc1ccc(NC(=O)/C(C#N)=C(\N)C(Cl)(Cl)Cl)nc1	-62	·	·	·	·	0.68	·	0%	-3
CC(=O)Nc1nccc(-c2cc(-c3ccccc3)no2)n1	·	·	·	·	·	0.61	·	-11%	-6
COc1ccc(/C=N\NC(=O)COc2ccc(C(C)(C)C)cc2)cc1Cn1nc(C)cc1C	-3.8	·	·	·	·	·	·	1%	-1
Cc1cc(C)c2c(NC(=S)NC(=O)c3ccccc3)n[nH]c2n1	0.9	-1.5	-9	-1	-7.9	0.72	i	·	·
C/C(=N\NC(=S)Nc1ccc(C)cc1)c1cccc(N)c1	1.3	2.5	3	0	-3.7	·	i	-2%	·
CCc1ccc(NC(=O)NCCN2CCc3ccccc3C2)cc1	-1.5	·	·	·	·	0.68	·	13%	-3
CC(=O)N/C(=C\c1ccc(F)cc1)C(=O)NC(Cc1c[nH]c2ccccc12)C(=O)O (configuration not stated)	-1.4	-0.2	9	12	-13	0.64	i	·	-3
Cc1ccc(C2C(=O)N(C3CCCC3)CC(=O)N2CC2COc3ccccc3O2)cc1 (configuration not stated)	-3.5	·	·	·	·	0.75	·	1%	-1
O=C(O)C1=CCCc2ccc(F)cc21	4.3	-3.9	1	3	-0.9	0.68	i	5%	·
COc1ccc(CCC(=O)N2CCN(S(=O)(=O)c3ccc(OC(F)(F)F)cc3)CC2)cc1	-2.5	-0.7	-3	-16	-3.3	0.66	i	5%	1
Cc1c(NC(=O)COc2ccc3ccccc3c2)c(=O)n(-c2ccccc2)n1C	·	-1.9	3	17	0.1	0.52*	i	·	-13
C[C@@H]1CCCCO[C@H](CN(C)C(=O)Cc2ccccc2)[C@@H](C)CN([C@@H](C)CO)C(=O)c2cc(NC(=O)c3ccccc3)ccc2O1	·	2.5	0	3	0.2	·	i	·	·
Cc1cc(N2CCN(C(=O)c3[nH]c(C(F)(F)F)nc3-c3ccccc3)CC2)c2ccccc2n1	2.2	1.0	0	5	3.3	·	i	·	·
Cc1cccn2c(=O)c3cc(C(=O)NCCc4ccccc4)sc3nc12	-2.9	-3.1	1	10	4.5	0.73	i	·	12
Cc1cccc(CN2CCc3c(OCC(=O)N4CCCc5ccccc54)cccc3C2=O)c1	0.5	·	·	·	·	0.73	·	·	1
Cc1ccc(S(=O)(=O)N2CCN(C(=O)COC(=O)/C=C/c3ccc(C(F)(F)F)cc3)CC2)c(C)c1	2.6	-1.2	-6	-5	-1.5	0.7	i	·	·
COC(=O)c1ccc(Oc2coc3cc(OCc4cnn(-c5ccccc5)c4)ccc3c2=O)cc1	-0.9	·	·	·	·	0.76	·	0%	-2
OC(CNC1Cc2ccccc2C1)COc1ccc(F)cc1 (configuration not stated)	0.2	·	5	-1	2.5	0.64	i	·	·
Cc1ccc(-c2ccc3c(c2)O[C@H](CN(C)C(=O)CC2CC2)[C@H](C)CN([C@H](C)CO)S3(=O)=O)cc1	·	4.2	-21	-63	21	·	i	·	·
Cc1ccc(CNC(=O)C2CCCN2C(=O)Nc2ccccc2)cc1 (configuration not stated)	2.5	0.6	2	11	1.2	0.66	i	·	-1
CN(CCOc1ccccc1)C(=O)c1ccc(Cl)c(S(=O)(=O)N2CCCCC2)c1	1.0	-8.6	-7	-28	-1.2	0.66	i	-17%	-1

Three compounds picked at random from those above:
SMILES	HNF4A DNA FP	MLL AF4-AF9 inh	Ecoli rRNA inh	Ecoli rRNA inh OD600	Ecoli rRNA inh RFP	E coli growth	FGF22 binding	Vif TR-FRET	ALR H2O2 inh
CC(=O)N/C(=C\c1ccc(F)cc1)C(=O)NC(Cc1c[nH]c2ccccc12)C(=O)O (configuration not stated)	-1.4	-0.2	9	12	-13	0.64	i	·	-3
Cc1ccc(-c2ccc3c(c2)O[C@H](CN(C)C(=O)CC2CC2)[C@H](C)CN([C@H](C)CO)S3(=O)=O)cc1	·	4.2	-21	-63	21	·	i	·	·
Cc1ccc(S(=O)(=O)N2CCN(C(=O)COC(=O)/C=C/c3ccc(C(F)(F)F)cc3)CC2)c(C)c1	2.6	-1.2	-6	-5	-1.5	0.7	i	·	·

(further entries)
SMILES	HNF4A DNA FP	MLL AF4-AF9 inh	Ecoli rRNA inh	Ecoli rRNA inh OD600	Ecoli rRNA inh RFP	E coli growth	FGF22 binding	Vif TR-FRET	ALR H2O2 inh
COc1cccc(-c2nnc3n2N=C(C(C)(C)C)CS3)c1	2.9	·	·	·	·	0.7	·	1%	-15
CC1CCCCC12NC(=O)N(CC(=O)N1CCc3ccccc31)C2=O (configuration not stated)	5.5	-0.7	·	·	·	0.65	i	-6%	-1
COc1cc(Nc2ccn3nc(-c4ccccc4Cl)cc3n2)cc(OC)c1OC	3.0	-0.9	-6	1	-0.7	·	i	·	·
COc1ccc2c(c1)cc1c(=O)n(CC(=O)NC(C)CCc3ccccc3)nc(C)n12 (configuration not stated)	-4.8	-0.8	8	19	-1.1	0.66	i	·	-6
Cc1c(Cc2ccccc2)c(=O)oc2c(C)c(OC(C)C(=O)NCC3CCC(C(=O)O)CC3)ccc12 (configuration not stated)	0.8	0.0	-21*	-13*	-2.6*	0.68	i	·	·
O=C(CSc1nnc(-c2cc(-c3cccs3)nc3ccccc23)o1)NC1CCCCC1	-6.0	·	·	·	·	0.76	·	2%	-6
CCCC#Cc1cnc2c(c1)C(=O)N([C@H](C)CO)C[C@@H](C)[C@H](CN(C)Cc1ccccc1F)O2	·	7.1	-2	-7	2.6	·	i	·	·
C=CCNC(=O)c1onc(CSc2ccc(F)c(F)c2)c1C(=O)O	-1.4	3.1	-6	-9	11	0.71	i	?	55
COc1ccc(Nc2nnc(-c3ccc4c(c3)OCO4)o2)cc1	·	6.7	5	4	-2.6	·	i	·	·
COc1ccc(NC(=O)CSCC(=O)N=c2sccn2C)cc1	-1.1	-13	5	5	1.0	0.7	i	-4%	-3
Cc1ccccc1C(=O)c1cccn1CC(=O)NCc1ccco1	1.9	·	·	·	·	0.65	·	2%	30
COc1cccc(NC(=O)c2nc3ncccn3n2)c1	-3.5	·	·	·	·	0.74	·	-8%	-17
CC(SC(=S)N1CCOCC1)C(=O)O (configuration not stated)	0.8	·	·	·	·	0.62	·	7%	-2
ClCCn1c(CCl)nc2ccc(Cl)cc21	1.9	-0.4	-4	-14	-9.9	·	i	5%	·
CC(C)C#Cc1ccc2c(c1)O[C@H](CN(C)C(=O)CN(C)C)[C@H](C)CN([C@@H](C)CO)S2(=O)=O	·	1.8	5	-1	0.4	·	i	·	·
CCN(Cc1nc2ccccc2c(=O)[nH]1)C(=O)c1cccc(NC(=O)c2cccs2)c1	3.8	-1.2	-5	-19	1.3	0.67	·	-6%	·
C[C@H]1CN([C@@H](C)CO)C(=O)Cc2cc(NC(=O)C3CC3)ccc2O[C@H]1CN(C)C(=O)Nc1ccc(C(F)(F)F)cc1	·	-2.0	3	5	1.5	·	i	·	·
CCOC(=O)c1c(C)oc(/N=C/c2ccccc2O)c1C#N	0.0	·	·	·	·	·	·	-2%	16
COc1ccc(Cl)cc1S(=O)(=O)N1CCN(C(=O)c2ccco2)CC1	2.6	·	·	·	·	0.75	·	20%	·
O=C(C[C@H]1C=C[C@H](NC(=O)Nc2ccccc2F)[C@@H](CO)O1)NCc1ccc(-c2ccccc2)cc1	4.2	1.7&-1.7	4&5	0&14	1.2&-2.0	·	i	·	·
CCC(CC)c1nnc(NC(=O)c2ccc3ccccc3n2)s1	1.2	·	·	·	·	0.66	·	21%	-6
O=C(CNc1cccc(S(=O)(=O)N2CCCCC2)c1)Nc1ccccc1F	-5.1	-15	9	10	0.6	0.73	i	-3%	-4
CN(C)S(=O)(=O)c1cccc(NC(=O)CSc2cccc3cccnc23)c1	5.6	2.3	5	-6	6.1	0.69	i	·	-19
O=C(COC(=O)c1ccc(S(=O)(=O)N2CCCCC2)cc1)NCc1ccc(F)cc1	-1.7	0.7	3	-1	-1.7	0.67	i	13%	·
C[C@@H]1CN([C@H](C)CO)C(=O)Cc2cc(NC(=O)Nc3ccc4c(c3)OCO4)ccc2O[C@@H]1CN(C)CC1CCCCC1	·	7.0	0	-1	5.7	·	i	·	·
C[C@H]1CN([C@@H](C)CO)S(=O)(=O)c2ccc(C#CC3(O)CCCC3)cc2O[C@@H]1CN(C)C(=O)Cc1ccncc1	·	-0.3	-1	12	-0.9	·	i	·	·
O=c1[nH]c(C2CCCN(S(=O)(=O)c3ccccc3)C2)nc2c1nnn2Cc1ccc2c(c1)OCCO2 (configuration not stated)	-1.5	0.2	-10	-29	1.1	0.72	i	·	-11
O=C(Nc1nnc(/C=C/c2ccccc2)s1)c1ccco1	3.5	-6.2	8	1	2.2	0.69	i	-7%	4
CCC(C)c1ccc(C2C3=C(Nc4nc(N)[nH]c(=O)c42)c2ccccc2C3=O)cc1 (configuration not stated)	4.4	-0.4	-3	0	-4.1	0.7	i	-7%	-1
CSCC[C@@H](CO)NC(=O)c1ccc2nc(C3CCCCC3)oc2c1	0.2	-1.0	4	4	-2.4	0.66	i	·	·
C[C@H](NC(=O)c1ccc2c(c1)OCO2)c1nnc2ccccn12	0.1	·	·	·	·	0.69	·	5%	-3
O=C(O)c1ccccc1NCc1ccncc1	2.3	·	·	·	·	0.67	·	-1%	-6
COc1ccc(NC(=O)COC(=O)c2ccc3ccccc3n2)cc1	-1.6	0.9	3	10	2.7	0.68	i	6%	-2
CCOc1ccccc1OCCCC(=O)N(CC)CC(=O)Nc1c(F)cccc1F	0.7	-11	1	3	-1.0	0.65	·	5%	0
COc1ccc(S(=O)(=O)N2CCN(c3ncnc4c(-c5ccccc5)nsc34)CC2)cc1	3.5	·	·	·	·	0.74	·	·	-2
